Cruzain inh Det: inhibitors of Trypanosoma cruzi cruzain with detergent; Potency, µM, for the others: max response, negative = inhibition, hits mostly inhibitors; P25779; purified cruzain, Z-FR-AMC fluorescence, 0.01% Triton; hit rate 0.43% among 200,000;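 further: plate controls were neutral wells for no effect and buffer without enzyme for full effect; nearly all actives have a fitted effect of over 40% in size; top concentration of the series not given in the record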
Target sequence (P25779 123-467 limits assumed): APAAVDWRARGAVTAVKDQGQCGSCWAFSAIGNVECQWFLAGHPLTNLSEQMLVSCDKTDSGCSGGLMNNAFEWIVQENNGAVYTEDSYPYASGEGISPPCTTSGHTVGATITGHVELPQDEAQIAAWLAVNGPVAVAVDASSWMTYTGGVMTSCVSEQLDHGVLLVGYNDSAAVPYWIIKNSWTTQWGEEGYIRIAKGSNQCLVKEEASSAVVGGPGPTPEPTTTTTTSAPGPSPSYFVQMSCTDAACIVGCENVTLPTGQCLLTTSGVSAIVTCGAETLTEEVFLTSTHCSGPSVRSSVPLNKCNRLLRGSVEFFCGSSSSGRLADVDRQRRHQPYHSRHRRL
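Cysteine protease activity tested under reducing, mildly acidic conditions (100 mM sodium acetate pH 5.5, 5 mM DTT) plus 0.01% Triton X-100. Cruzain 1.5 nM; substrate Z-FR-AMC 2 uM; 15 min compound preincubation at room temperature.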
Cruzain noTriton: inhibitors of Trypanosoma cruzi cruzain without detergent | hit rate 2.3% among 200,000 | P25779 | Potency, µM, without a hit: max response, negative = inhibition, usual class: inhibitors | purified cruzain, Z-FR-AMC fluorescence, no detergent;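 further: plate controls were enzyme without inhibitor for no effect and buffer without enzyme for full effect; nearly all actives have a fitted effect of over 40% in size; top concentration of the series not given in the record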
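Detergent-free condition (0.00005% Triton X-100) in acetate buffer pH 5.5 with DTT. 1.5 nM enzyme and compound were pre-mixed 15 min, then 2 uM Z-FR-AMC substrate added; reaction progress from fluorescence change between first and third reads (60 s).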
StopGo reporter: lowers the luciferase signal of an FMDV 2A StopGo reporter. AID 1159524. hit rate 1.2% among 410,000. human cells with a luciferase reporter of 2A StopGo recoding; control for the full effect not named in the record. Potency, µM (series often up to 57.9 µM), for the others: top-dose signal change, negative = less light; active = well fitted falling curve with a large enough effect; inconclusive = small, poorly fitted or top-dose-only effect; inactive = no such curve, though single readings can be large or run the other way; tested in HEK293T cells; further: nearly all actives have a fitted effect of over 45% in size; luciferase light after 4 h
* = called active by the depositor; ? = inconclusive; & = joins results of further samples; [ ] = dose if it differs, or a comment. Unless noted, the call rests on the fitted dose curve; in most records, active means well fitted curve in the direction sought with a large enough effect; inconclusive means small, poorly fitted or top-dose-only effect, or another doubt; inactive means no such curve, though single readings can be large; an effect the other way counts as inactive or inconclusive. Unless noted, on the % scale 0 is the no-effect control and ±100 the full control effect; potency means the concentration at half of the fitted maximal effect. These rows are one share of the data. The share of hits here may be higher or lower than overall.

Compound	Cruzain inh Det	Cruzain noTriton	StopGo reporter
N#Cc1cccc(NC(=O)N2CC3(CCN(C(=O)c4ccco4)CC3)C2)c1	-0.9%	-2.0%	-12.7%
CN(Cc1ccco1)c1ncncc1-c1cccnc1	3.3%	1.4%	-12.3%
COc1ccc(-c2nc3cnc(OC)nc3n(CCC#N)c2=O)cc1	2.7%	11.8%	4.5%
COC(=O)C1=C(C)NC(C)=C(C(=O)OCCSc2ccccc2)[C@@H]1C	-8.6%	?	-40.9%
O=c1cnc2cnc(N3CCOCC3)nc2n1CCc1ccccc1	-0.6%	0.6%	-6.1%
COc1ccc(-c2nc3cnc(Oc4ccccc4)nc3n(Cc3cccs3)c2=O)cc1	-0.9%	13.9%	5.3%
CC(=O)Oc1ccc2c(c1)CCC1C2CC[C@]2(C)C(OC(C)=O)CCC12 (stereo partly drawn)	-3.7%	8.2%	-4.7%
COc1cccc(-c2nccc(NCc3cccs3)n2)c1	-3.9%	2.8%	-17.0%
CN(C)C(=O)c1ccc(-c2nc(N(C)Cc3ccco3)c3ccccc3n2)cc1	-0.1%	2.6%	29.9%
Nc1ccccc1C(=O)CC(N)C(=O)O (stereo not drawn)	-1.9%&-2.7%	-10.4%&-3.6%	23.2%

Record cards, from the list above. Screens in order: Cruzain inh Det	Cruzain noTriton	StopGo reporter
Profile of CN(C)C(=O)c1ccc(-c2nc(N(C)Cc3ccco3)c3ccccc3n2)cc1 → -0.1%	2.6%	29.9%
Profile of COc1ccc(-c2nc3cnc(OC)nc3n(CCC#N)c2=O)cc1 → 2.7%	11.8%	4.5%
Profile of COc1cccc(-c2nccc(NCc3cccs3)n2)c1 → -3.9%	2.8%	-17.0%
Profile of O=c1cnc2cnc(N3CCOCC3)nc2n1CCc1ccccc1 → -0.6%	0.6%	-6.1%
Profile of N#Cc1cccc(NC(=O)N2CC3(CCN(C(=O)c4ccco4)CC3)C2)c1 → -0.9%	-2.0%	-12.7%

The list continues:
Compound	Cruzain inh Det	Cruzain noTriton	StopGo reporter
CN(C)C(=O)c1ccc(-c2nc(NCc3cccs3)c3ccccc3n2)cc1	0.0%	-13.0%	59.5%[activator]
Cc1cccc(CNc2ncnc3ccc(-c4ccccc4C#N)cc23)c1	-1.2%	5.1%	-17.1%
O=C(Nc1ccccc1)N1CC[C@@]2(CCCN(C(=O)c3ccncc3)C2)C1	-2.0%	-6.1%	-9.6%
c1cncc(-c2nc(NCCN3CCOCC3)c3ccccc3n2)c1	2.7%	-5.9%	-2.2%
O=C(O)c1cc(O)c(O)c(O)c1	4.5%&0.5%	1.4%&-1.6%	-21.5%
COc1ccc2[nH]cc(CCNc3ncncc3-c3cccc(NS(C)(=O)=O)c3)c2c1	1.1%	8.5%	-10.0%
CC1(C)C(O)CC(=O)[C@]2(C)C1CC(=O)[C@]1(C)C2CC[C@@]2(C)C(c3ccoc3)OC(=O)C3O[C@@]321 (stereo partly drawn)	-2.2%	20.9%	10.2%
N#Cc1ccc(CN2CC3(CCN(C(=O)c4cc(C(F)(F)F)cc(C(F)(F)F)c4)CC3)C2)cc1	3.8%	-8.7%	?
COc1ccc(C2c3cc(OC)c(OC)cc3Cc3c4cc(OC)c(OC)cc4cc[n+]32)cc1OC (stereo not drawn)	-1.7%	-8.1%	-13.3%
CN(Cc1ccccc1)C(=O)[C@H](Cc1ccc2ccccc2c1)NC(=O)[C@@H]1C[C@@H](O)CN1C(=O)c1cn(C)c2ccccc12	-0.7%	?	28.0%
Clc1ccccc1-c1nccc(-n2ccnc2)n1	-2.4%	0.5%	12.3%
CC(=O)OC1CC2C(C)(C)C(=O)[C@@H]3OC3[C@@]2(C)C2CC[C@]3(C)C(=CC(=O)OC3c3ccoc3)[C@]12C (stereo partly drawn)	4.6%	5.2%	-12.2%
NCC1CCCCC1CC(=O)O (stereo not drawn)	-1.0%	11.9%	-12.1%
O=c1c(CCc2ccccc2)nc2cnc(N3CCOCC3)nc2n1C1CC1	4.6%	-11.3%	14.4%
c1ccc(CNc2ccnc(-c3cccnc3)n2)cc1	5.3%	0.7%	-8.8%
COc1ccc(/C=C/C(=O)/C=C/c2ccc(OC)cc2OC)c(OC)c1	5.6%	3.16µM*	0.0%
O=C(Nc1ccccc1)N1CCC2(CC1)CCN(C(=O)c1csnn1)CC2	-9.2%	-17.9%	-1.9%
COc1ccccc1CNc1nc(-c2ccccc2OC)nc2ccccc12	-0.6%	-5.9%	-28.3%
O=C(c1cnccn1)N1CCC2(CCCN(c3ccc(-c4ccccc4)cc3)C2)CC1	0.9%	?	-27.5%
COCCn1c(=O)c(-c2cccc(C#N)c2)nc2cnc(OCc3ccccc3)nc21	2.0%	0.7%	-8.0%
Cc1noc(C)c1-c1nccc(NCCN2CCOCC2)n1	-0.4%	5.8%	13.5%
O=C(c1cccc(F)c1)N1CCC2(CC1)CN(c1cccc(-c3ccccc3)c1)C2	-6.9%	-0.9%	?
O=S(=O)(c1ccccc1)N1CCC2(CCCN(c3ccccc3)C2)CC1	-0.5%	2.4%	-23.0%
COc1cccc(Cn2c(=O)c(-c3ccc(Cl)cc3)nc3cncnc32)c1	-1.2%	-16.6%	-15.1%
COc1cc(OC)c2c(=O)c(-c3ccccc3)c(C)oc2c1OC	0.0%	1.4%	10.3%
COc1ccc(C(=O)N2CCC3(CCCN(Cc4ccc(C#N)cc4)C3)CC2)cc1	0.4%	-8.6%	-5.6%
O=C(c1ccncc1)N1CCC2(CCN(Cc3ccccc3)CC2)CC1	-1.3%	-6.9%	-2.3%
COc1cccc(Cn2c(=O)c(C)nc3cnc(N4CCOCC4)nc32)c1	0.7%	6.9%	-4.3%
CCNc1ncc2nc(-c3ccc(OC)cc3)c(=O)n(CCOC)c2n1	1.2%	3.3%	-10.7%
COc1ccc(Oc2ncc3nc(C)c(=O)n(-c4ccc(OC)cc4)c3n2)cc1	6.3%	-6.5%	-3.2%
OC[C@@H](O)COc1cccc2ccccc12	-1.6%	1.7%	6.4%
COc1ccc(C(=O)N2CCC3(CCCN(c4cccc(-c5ccccc5)c4)C3)CC2)cc1	-2.8%	?	-0.6%
COCC(=O)N1CCC2(CC1)CN(c1ccc(-c3ccccc3)cc1)C2	4.5%	?	-28.5%
C#C[C@]1(OC(C)=O)CCC2C3CCC4=CC(=O)CCC4C3CC[C@]21C (stereo partly drawn)	-2.1%	-1.9%	?
N#CCCn1c(=O)c(-c2cc(F)cc(F)c2)nc2cnc(OCc3ccccc3)nc21	-2.8%	-5.6%	-20.6%
CC(=O)Oc1c(C)cccc1C(=O)O	2.3%	3.3%	-6.3%
O=C(Oc1ccccc1)N1CCC2(CC1)CN(c1ccccc1)C2	0.7%	-27.3%	-20.1%
COc1ccc(-n2c(=O)c(CCc3ccccc3)nc3cncnc32)cc1	-3.8%	-10.8%	23.0%
COc1ccccc1CN1CCC2(CC1)CCN(S(C)(=O)=O)CC2	-4.6%	4.3%	-11.3%
FC(F)(F)c1ccccc1-c1nccc(NCc2cccs2)n1	0.9%	-17.9%	-17.5%
CCCCCCN(CCCCCC)C(=O)Cc1c(-c2ccc(Cl)cc2)[nH]c2ccc(Cl)cc12	1.0%	-12.6%	-11.8%&-6.4%
COc1cccc(Cn2c(=O)cnc3cnc(Oc4ccccc4)nc32)c1	0.3%	-4.8%	-16.6%
CC(=O)N1CCC2(CCN(Cc3nccs3)CC2)CC1	7.4%	5.4%	-21.0%
c1ccc(CNc2ccnc(-c3ccoc3)n2)cc1	-1.9%	-8.8%	-1.3%
COc1ccc(Oc2ncc3nc(-c4cn(C)c5ccccc45)c(=O)n(C4CC4)c3n2)cc1	-0.9%	-8.1%	-1.5%
COc1ccc(C(=O)N2CCC3(CCN(Cc4nccs4)CC3)CC2)cc1	3.4%	-1.6%	-12.8%
CC1OC(OCC2OC(Oc3c(-c4ccc(O)c(O)c4)oc4cc(O)cc(O)c4c3=O)C(O)C(O)C2O)[C@@H](O)C(O)C1O (stereo partly drawn)	-5.1%	-3.8%	3.3%
O=C(c1ccncc1)N1CCC2(CC1)CCN(c1ccccc1)CC2	-0.2%	-4.1%	-14.2%
COc1ccccc1CNc1nc(-c2ccccc2CN(C)C)nc2ccccc12	0.8%	3.7%	-11.7%
COc1c2c(cc3occ(-c4ccc5c(c4)OCO5)c(=O)c13)OC(C)(C)C=C2	-7.8%	-9.9%	?

Carrying on:
The line under a structure holds: Cruzain inh Det | Cruzain noTriton | StopGo reporter
COc1ccccc1-c1nc(NCc2ccccc2)c2ccccc2n1
    -4.9% | 3.8% | ?
COc1ccc(-c2oc3cc(O[C@@H]4OC(CO)C(O)C(O)C4O)c(OC)c(O)c3c(=O)c2OC)cc1O (stereo partly drawn)
    -3.4% | -8.2% | 32.3%[activator]
CCNc1ncc2ncc(=O)n(C)c2n1
    -13.2% | -22.6% | 2.4%
O=C(c1ccncc1)N1CCC2(CC1)CN(c1ccncc1)C2
    2.2% | -4.1% | -3.0%
COc1ccc(CCN(C)CCCOc2ccc(S(=O)(=O)c3[nH]c4ccccc4c3C(C)C)cc2)cc1OC
    -6.7% | 19.6% | -28.6%
O=C(Oc1ccccc1)N1CCC[C@@]2(CCN(c3ncccn3)C2)C1
    -0.8% | 5.6% | -10.9%
O=C(c1cnccn1)N1CCC2(CCCN(c3ncccn3)C2)CC1
    0.5% | 5.3% | -6.6%
CC1(C)N(O)C(c2ccc(C(=O)O)cc2)=[N+]([O-])C1(C)C
    -2.8% | 1.1% | -24.8%
CNc1ccccc1C(=O)O
    -1.4% | -3.8% | -12.5%
C/C=C(\C)C(=O)OC1CC(OC(C)=O)[C@@]2(C(=O)OC)COC3C2[C@@]12CO[C@](O)(C(=O)OC)C2[C@](C)(C12OC1(C)C1CC2OC2OC=C[C@]21O)C3O (stereo partly drawn)
    5.6% | ? | -7.0%
O=c1c(-c2cc(F)cc(F)c2)nc2cncnc2n1Cc1ccc(F)cc1
    3.8% | -1.9% | ?
COc1ccc(Oc2ncc3nc(C)c(=O)n(CCC#N)c3n2)cc1
    -1.2% | -17.6% | -8.1%
CCn1cc(C(=O)O)c(=O)c2cnc(N3CCCC3)nc21
    -1.8%&-0.7% | 3.7%&-1.8% | -5.9%
COc1ccccc1CN1CCCC2(CCNCC2)C1
    2.9% | 7.2% | -3.6%
CN1CCN(c2ncnc3ccc(-c4ccc5c(c4)OCO5)cc23)CC1
    -9.6% | -12.6% | -28.9%
COc1ccc(-c2coc3c(OC)c(OC)cc(O)c3c2=O)cc1
    -9.2% | ? | 15.4%
CNC(=O)O/N=C/C(C)(C)SC
    2.7%&3.5% | -2.9%&-3.0% | 5.5%
CN1CCN(c2ncc3nc(-c4cn(C)c5ccccc45)c(=O)n(CCc4ccccc4)c3n2)CC1
    -3.2% | 8.0% | -15.6%
COc1ccc(CCCn2ncc3c2nc(N)n2nc(-c4ccco4)nc32)cc1
    -1.4% | -1.9% | ?
O=C(c1cnccn1)N1CCC[C@@]2(CCN(Cc3ccccc3)C2)C1
    4.2% | -10.3% | 2.8%
C[C@@]12CCC3c4ccc(OS(=O)(=O)O)cc4CCC3C1CCC2O (stereo partly drawn)
    0.6% | -3.2% | 4.6%
COc1ccc(NC(=O)N2CCCC3(CCN(C(=O)c4cccn4C)CC3)C2)cc1
    1.1% | 5.8% | 6.7%
N#CCCn1c(=O)c(-c2cccs2)nc2cnc(Oc3ccccc3)nc21
    -5.0% | 14.0% | -11.1%
O=C(/C=C/c1ccccc1)OC1CC(O)C2(O)C=CO[C@@H](OC3OC(CO)C(O)C(O)C3O)C12 (stereo partly drawn)
    -0.6% | -0.1% | 4.7%
Cc1noc(C)c1-c1ccc2ncnc(N3CCC(C(=O)O)CC3)c2c1
    3.7% | 9.2% | -7.0%
N#CCCn1c(=O)c(-c2ccc(F)cc2)nc2cnc(OCc3ccccc3)nc21
    1.7% | 18.1% | -6.7%
O=c1cnc2cncnc2n1Cc1ccccc1Cl
    4.3% | 19.5% | -29.8%

Source: PubChem (National Center for Advancing Translational Sciences (NCATS))
